# Screening results deposited in PubChem by National Center for Advancing Translational Sciences (NCATS).
# StopGo FLuc – FMDV 2A StopGo reporter, firefly signal. hit rate 0.23% among 120,000. HEK cells with a luciferase reporter of 2A StopGo recoding. Potency, µM (doses to about 57.5 µM), without a hit: top-dose signal change, negative = less light. AID 1745856; active = well fitted falling curve with a large enough effect; inconclusive = small, poorly fitted or top-dose-only effect; inactive = no such curve, though single readings can be large or run the other way; further: nearly all actives have a fitted effect of over 60% in size; overnight with compound
# 2A Renilla – FMDV 2A StopGo reporter, Renilla signal; hit rate 0.32% among 120,000; HEK cells with a luciferase reporter of 2A StopGo recoding; Potency, µM (titrated, usually from 57.5 µM), without a hit: top-dose signal change, negative = less light; AID 1745857; active means well fitted falling curve with a large enough effect; inconclusive means small, poorly fitted or top-dose-only effect; inactive means no such curve, though single readings can be large or run the other way; further: nearly all actives have a fitted effect of over 55% in size; overnight with compound
# * = called active by the depositor; ? = inconclusive; [ ] = dose if it differs, or a comment. On the % scale 0 is the no-effect control and ±100 the full control effect; potency means the concentration at half of the fitted maximal effect. Only part of the results is shown; count on the stated rates, not on these rows.
canonical_smiles,StopGo FLuc,2A Renilla
O=C(Nc1cc2c(cc1Sc1ccccc1)OCCO2)c1ccc2c(c1)OCCCO2,75%[activator],78%[activator]
ClC(=C\c1ccccc1)/C=N/N1CCN(Cc2ccccc2)CC1,4%,17%
O=S(=O)(c1cccc2nsnc12)N1CCCC1c1ccccc1Cl (stereo not given),-12%,-10%
O=C(/C=C/c1ccccc1[N+](=O)[O-])OCCCC(=O)c1ccc(Br)cc1,9%,4%
COCCNc1nc2c(c(=O)n(C)c(=O)n2C)n1Cc1cccc2ccccc12,25%,14%
CC(=O)c1ccc(N2CCN(C(=O)Nc3ccc(C(C)C)cc3)CC2)cc1,?,?
Cc1cccc(N2CCN(C(=O)CSCc3ccc(F)cc3)CC2)c1C,1%,?
CC(C)OC(=O)C1C2c3ccccc3C(c3ccccc32)C1C(=O)OC(C)C (stereo not given),-3%,2%
CCOC(=O)C1(C(C)=O)CC(C(=O)c2ccccc2)C(c2ccccc2)C(C(=O)c2ccccc2)C1 (stereo not given),2%,-9%
CC(CN(C)C)CN1c2ccccc2CCc2ccccc21 (stereo not given),-18%,-20%

# (further entries)
canonical_smiles,StopGo FLuc,2A Renilla
CC(C)(C#CC(O)(c1ccccc1)c1ccccc1)[N+](C)(C)Cc1ccccc1,12%,18%
O=C(CCN1CCCCC1)Nc1c(-c2ccccc2)c2cc(Br)ccc2[nH]c1=O,-6%,-6%
O=C(COc1ccccc1)Nc1ccc(OCc2cc(=O)n3ccsc3n2)cc1,-8%,-1%
COc1cccc(CN2CCc3ccccc3C2)c1OC,6%,-3%
COc1ccc(Cn2c(C(=O)O)c(CNC3CCCC3)c3ccc(OC)cc32)cc1,4%,20%
Cn1c(=O)c2c(nc(NCc3ccccc3)n2CCC#N)n(C)c1=O,-10%,-9%
CC(=O)c1ccc(NC(=O)C2CC(c3ccc(F)cc3)=NO2)cc1 (stereo not given),31%[activator],9%
COC(=O)[C@]12C[C@H](CC(=O)NCCCN3CCCC3=O)C(=O)N(Cc3ccco3)C1=C[C@H](C(C)C)O[C@@H]2C1CC1,3%,6%
Cc1c(C)n(Cc2ccc(F)cc2)c2ccc(C(=O)Nc3ccc(Cl)cc3)cc12,7%,7%
CC(C)C[C@@H]1COc2cc(Br)ccc2S(=O)(=O)N1Cc1cn(Cc2ccc(F)cc2)nn1,-2%,4%

# The listing continues.
canonical_smiles,StopGo FLuc,2A Renilla
O=C(O)c1cc(NCc2ccc3c(c2)OCO3)ccc1N1CCOCC1,12%,-7%
CCCCCn1nc(C(=O)N2CCC(n3c(=O)[nH]c4ccccc43)CC2)c2ccccc2c1=O,19%,0%
Cc1ccc(CNC(=O)CN2C(=O)C3(SCC(=O)N3c3ccc(F)c(F)c3)c3ccccc32)cc1 (stereo not given),2%,12%
COc1ccc(N2CCN(c3cc(C)nc4nncn34)CC2)cc1,-18%,?
COc1ccc(NC(=O)Cn2nc(C)c3c(C)n(-c4ccccc4)nc3c2=O)cc1OC,-12%,-15%
Cc1ccccc1CN1CCN(C(=O)c2cccc3cccnc23)CC1,-10%,-1%
CC(=O)Nc1cccc(NC(=O)CSc2cn(CC(=O)N3CCCC3)c3ccccc23)c1,35%[activator],19%
c1ccc(Nc2nc(NCc3ccco3)c3ccccc3n2)cc1,-7%,?
O=C(CCCn1c(=O)c2sccc2n(Cc2ccc(Cl)cc2)c1=O)NCc1ccc2c(c1)OCO2,8%,16%
Cc1cccnc1-n1c(C)c(C)c2c1ncn1nc(Cc3ccccc3)nc21,31%[activator],-7%

# Two of the compounds above, with two lines to a compound.
# Below each SMILES: StopGo FLuc, 2A Renilla
CCCCCn1nc(C(=O)N2CCC(n3c(=O)[nH]c4ccccc43)CC2)c2ccccc2c1=O
 : 19%, 0%
Cc1ccc(CNC(=O)CN2C(=O)C3(SCC(=O)N3c3ccc(F)c(F)c3)c3ccccc32)cc1 (stereo not given)
 : 2%, 12%

# (listing goes on)
canonical_smiles,StopGo FLuc,2A Renilla
CSc1ccc(C2=NN(C(=O)C(C)C)C(c3ccc4nccnc4c3)C2)cc1 (stereo not given),17%,16%
CCOc1ccc(C(=O)NCc2ccc3c(c2)CCN3C(=O)c2ccc(C)cc2)cc1OCC,1%,4%
CCOC(=O)N1CCN(Cc2nc3cc(NC(=O)c4ccccc4Cl)ccc3n2C(C)C)CC1,4%,12%
CCC(Sc1nc2c(sc3ccccc32)c(=O)n1CCc1ccc(OC)c(OC)c1)C(=O)N(CC)CC (stereo not given),-13%,-9%
CC1=C(C(N)=O)C(c2cccs2)n2nc(-c3cccc(Cl)c3)nc2N1 (stereo not given),0%,20%
O=C(NCCCCc1ccccc1)c1ccncc1,14%,-2%
O=C(Nc1ccon1)c1sc2cccc(Br)c2c1Cl,29%,-8%
COc1ccc(Cl)cc1C(=O)Nc1sc2c(c1C(=O)OC(C)C)CCCC2,-16%,-9%
CCOC(=O)c1noc2ncn(CC(=O)Nc3cccc(C(F)(F)F)c3)c(=O)c12,-10%,-19%
COc1cccc(/C=C(/C#N)c2ccc(Br)cc2)c1,150%[activator],10%

# Following part
canonical_smiles,StopGo FLuc,2A Renilla
CCCCCn1c(=O)[nH]c2cc(C(=O)Nc3ccc(F)c(F)c3)ccc2c1=O,-15%,-10%
COc1ccc(OC)c(CNc2nc3ccc(C)cc3n3nnnc23)c1,-23%,-17%
Cc1ccc(-c2ccc(OCC(=O)Nc3ccc(C(=O)N(C)C)cc3)cc2)cc1,21%,19%
COC(=O)[C@H](CC(C)C)NC(=O)Nc1ccc2oc(-c3cccnc3)nc2c1,64%[activator],4%
COCc1cccc(C(=O)NCc2ccc(C)cc2)c1,0%,8%
Cc1ccc(-c2n[nH]c(=O)c3ccccc23)cc1S(=O)(=O)NC(C)(C)C,47%[activator],104%[activator]
CCOC(=O)c1c(NC(=O)COc2ccc(OC)cc2)sc(C(=O)N(CC)CC)c1C,?,?
CCc1ccc(NC(=O)Nc2nnc(N(C)C3CCCCC3)s2)cc1,12%,-19%
Cc1ccccc1OCC(=O)Nc1cc(-c2cccc(Br)c2)nn1-c1ccccc1,3%,-9%
O=C(/C=C/c1ccc(Br)cc1)c1cc2ccccc2oc1=O,67%[activator],-7%

# Other entries follow:
canonical_smiles,StopGo FLuc,2A Renilla
CCc1c(C)nc(SCc2nc(-c3cccc(C)c3)oc2C)[nH]c1=O,0%,2%
Cc1ccsc1CN(Cc1ccco1)c1cnc(S(C)(=O)=O)nc1C(=O)Nc1ccc(Cl)cc1,-12%,-11%
CCCNC(=O)c1cc(-c2ccc(Cl)cc2)nc2ccccc12,9%,8%
Cc1c(CCC(=O)NCCCN2CCOCC2)c(=O)oc2c(C)c(O)ccc12,-4%,-10%
Cc1ccccc1N1CC(c2nc3ccccc3n2Cc2ccc(Br)cc2)CC1=O (stereo not given),?,?
Cn1ccn(C(F)(F)C(F)Cl)c1=S (stereo not given),3%,4%
CC(C)(C)C(=O)Nc1ccc(NC(=O)c2ccc3nc[nH]c3c2)cc1,96%[activator],4%
Cc1cc(N2CCN(C(C(=O)O)c3c[nH]c4ccc(Br)cc34)CC2)nc2ccccc12 (stereo not given),-8%,-17%
N#Cc1c(C(F)(F)F)cc(-c2ccccc2)nc1SCCc1ccccc1,1%,0%
COc1ccc(N(C)C(=O)Cn2cnc3sc(C)c(S(=O)(=O)N4CCN(c5ncccn5)CC4)c3c2=O)cc1,-15%,-7%

# Profiles as entered above.
# Listed for Cn1ccn(C(F)(F)C(F)Cl)c1=S (stereo not given) → StopGo FLuc: 3%; 2A Renilla: 4%
# Listed for Cc1ccccc1N1CC(c2nc3ccccc3n2Cc2ccc(Br)cc2)CC1=O (stereo not given) → StopGo FLuc: ?; 2A Renilla: ?

# Other records
canonical_smiles,StopGo FLuc,2A Renilla
Cc1ccc(/C=C/c2onc(C)c2S(=O)(=O)N2CCC(C(=O)Nc3cc(C)ccc3C)CC2)cc1,-13%,-9%
Cc1ccc(OC(C)C(=O)Nc2nonc2-c2ccc(Br)cc2)cc1C (stereo not given),-27%,-29%
CC(C)CNc1ncnc2c1nnn2C,0%,29%
CCOC(=O)c1sc(NC(=O)C(C)Sc2nc(-c3ccccc3)cc(C(F)(F)F)n2)c(C(=O)OC)c1C (stereo not given),-10%,1%
C=CCNc1nc2c(c(=O)n(C)c(=O)n2C)n1Cc1ccccc1Cl,-14%,-19%
COc1ccc(-c2cc(C(C)=O)c(C)n2CCC(=O)NC2CCCCC2)cc1,-12%,26%
CC(C)Cn1cnc2c1c(=O)n(CC(=O)OCc1ccc(F)cc1)c(=O)n2Cc1ccccc1,-4%,-12%
COc1cc(NC(=O)c2cc(-c3cccc(Cl)c3)on2)c(OC)cc1Cl,-1%,-11%
OCCc1nc2ccccc2[nH]1,15%,7%
CC1=CC(=O)C(C(=O)/C=C/c2ccc(C)s2)C(=O)O1 (stereo not given),128%[activator],-10%

# The list continues:
canonical_smiles,StopGo FLuc,2A Renilla
Cc1ccc(OCCN(C)C(C)c2nc3ccccc3c(=O)[nH]2)cc1 (stereo not given),0%,-4%
Cc1cc(C)cc(N(C(C)C(=O)N2CCCC2)S(C)(=O)=O)c1 (stereo not given),-8%,-8%
CCOC(=O)C1CCN(C(=O)Cn2nc(C)n3c(cc4cc(C)ccc43)c2=O)CC1,7%,-26%
CCOC(=O)c1sc2ncn(CC(=O)Nc3ccc(N(C)C)cc3)c(=O)c2c1C,-7%,-10%
COc1ccc(C(=O)c2cnc3ccc(C)cc3c2S(=O)(=O)c2ccccc2)cc1,-8%,29%
COc1ccc(NC(=O)Cn2c(=O)c(-c3cc(C)ccc3NC(C)=O)nc3ccccc32)c(OC)c1,-1%,-17%
Cc1ccc(CSc2nc3cccnc3n2Cc2nc(-c3ccccc3F)oc2C)cc1,7%,-14%
S=C(NCCc1ccccc1)NC1CCCc2ccccc21 (stereo not given),0%,152%[activator]
O=C(NC1CCCCCC1)c1cc(-c2cccs2)on1,176%[activator],-2%
CC(C)COc1cccc(C(=O)Nc2cccc(C(F)(F)F)c2)c1,0%,-3%

# Four structures out of the list, ordered by SMILES length, ascending:
canonical_smiles,StopGo FLuc,2A Renilla
COc1ccc(N2CCN(c3cc(C)nc4nncn34)CC2)cc1,-18%,?
Cc1ccccc1N1CC(c2nc3ccccc3n2Cc2ccc(Br)cc2)CC1=O (stereo not given),?,?
O=C(CCN1CCCCC1)Nc1c(-c2ccccc2)c2cc(Br)ccc2[nH]c1=O,-6%,-6%
CC(C)(C#CC(O)(c1ccccc1)c1ccccc1)[N+](C)(C)Cc1ccccc1,12%,18%

# Back to the main list; the 2 compounds before the break are reprinted first.
canonical_smiles,StopGo FLuc,2A Renilla
O=C(NC1CCCCCC1)c1cc(-c2cccs2)on1,176%[activator],-2%
CC(C)COc1cccc(C(=O)Nc2cccc(C(F)(F)F)c2)c1,0%,-3%
COc1ccccc1Cn1c(CNS(=O)(=O)c2ccccc2Cl)nc2cccnc21,-2%,204%[activator]
CCCN(C(=O)c1nn(-c2ccc(OC)cc2)c(=O)c2c1c1ccccc1n2C)c1ccc(CC)cc1,0%,11%
Cc1cc(C)c2oc(=O)cc(CN(C)CCO)c2c1,8%,7%
CCOc1ccc(-c2nnc(SCC(=O)N(CC)c3cccc(C)c3)o2)cc1,21%,19%
CC(=O)Nc1ccc(/C(C)=N\OCC(=O)NC(C)C(C)C)cc1 (stereo not given),18%,13%
CCc1cc(=O)oc2cc(OS(=O)(=O)c3sc(C(=O)OC)c(C)c3C(=O)OC)ccc12,-6%,-6%[1.06 µM]
CCOc1ccc(C2=CC(c3cc(Br)ccc3F)n3ncnc3N2)cc1Cl (stereo not given),22%,2%
O=C(Nc1ccccc1O)c1csc(NC2CC2)n1,-33%,?
Cc1ccc(CNC(=O)COC(=O)c2ccc3c(c2)NC(=O)CS3)cc1,1%,3%
Cc1sc2nc(NCCO)n3nc(-c4ccco4)nc3c2c1C,55%[activator],44%[activator]
